Screening results from PubChem BioAssay.
BJeLR viability: kills HRASV12-expressing BJeLR cells. BJeLR (HRASV12) viability, CellTiter-Glo ATP luminescence, 48 h; reference of the scale not given here. inhibition, % (test concentration not listed). 300,000 compounds, 0.17% hits. AID 1554;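 active = replicate mean above 50%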;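 note: 50 nL library stock added to about 25 µL; numbers are from one replicate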
ugtP null kill: compounds lethal to S. aureus RN4220 ugtP deletion mutant | OD600 growth, 16 h; some inactives read as strong as hits | growth inhibition, % (test concentration not listed) | 330,000 compounds, 0.54% hits;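 active = z-score under -3 and OD600 up to 0.15 on both plates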;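 note: plate controls were untreated wells for no effect and antibiotic for full effect; wells of about 80 µL received 100 nL stock; the first replicate is given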
PrP 5UTR inh: inhibition of PrP 5' UTR reporter expression | cell-based PrP 5' UTR mRNA reporter, plate reader | inhibition, % (test concentration not listed) | 340,000 compounds, 0.35% hits;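 active = every replicate at 50% or more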;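 note: 0 = median of the neutral control wells; tested in H4 reporter cells; numbers are from one replicate; inactives centre near -14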
RN4220 kill: S. aureus RN4220 growth inhibition. AID 1259311. 330,000 compounds, 0.33% hits. OD600, 16 h. inhibition, % (concentration not given with the values);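 active = z-score of -3 or lower and OD600 up to 0.18 on both plates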;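 note: plate controls were untreated cells for no effect and reference antibiotic for full effect; stock transfer was 100 nL into about 80 µL; one replicate is shown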
Bead autofluor: counter-screen for toxin protease inhibitors: compound fluorescence. compound autofluorescence counterscreen, microsphere flow cytometry; stronger effect = higher value. fluorescence intensity (no concentration beside the values). 360,000 compounds, 3.1% hits;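 active = at least 3 SD above the mean of all compounds, about 16000 in these data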;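 note: 100 nL of 1 mM stock went into each well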
Mtb hypoxia rep: reduces hypoxia-regulated biosensor signal in M. tuberculosis | M. tuberculosis hypoxia-regulated fluorescent reporter, fluorescence | 300,000 compounds, 0.1% hits | fluorescence inhibition, % (no concentration beside the values);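 active = 35 to 45% if threefold the growth effect, above 45% if 1.5-fold the growth effect; inactive = the rest, general growth blockers included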;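 note: wells of about 50 µL received 100 nL stock; 0% = vehicle wells and 100% = reference inhibitor wells; whole bacteria with a GFP reporter of the hypoxia response; strong numbers were not always called active; many hits fall short of the cut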
Mtb hypoxia rep growth: recorded beside Mtb hypoxia rep, whose call it bears; growth inhibition, %; measured here: M. tuberculosis growth (absorbance);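 0% = vehicle and 100% = reference antibiotic; read after six days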
Numbers without * were called inactive; . = no result given; & = joins results of further samples.

SMILES	BJeLR viability	ugtP null kill	PrP 5UTR inh	RN4220 kill	Bead autofluor	Mtb hypoxia rep	Mtb hypoxia rep growth
COc1cc(NC(=O)c2cccc(C)c2)ccc1NC(=O)c1cc2ccccc2o1	-4.1	.	-16.7	.	3677	.	.
CCn1c(SCC(=O)NC(=O)NC(C)(C)C)nc2ccccc21	-2.1	1.5	-26.1	5.5	3653	12.2	4.9
N=c1c(S(=O)(=O)c2ccccc2)cc2c(=O)n3ccccc3nc2n1CC1CCCO1 (centres undefined)	.	-3.0	-4.2	2.5	4435	.	.
COCCCNC(=O)[C@H](Cc1c[nH]c2ccccc12)NC(=O)OCc1ccccc1	-17.7	6.1	-10.9	5.4	3072	2.2	3.7
O=S1(=O)CCC(NS(=O)(=O)c2cccc3cccnc23)C1 (centres undefined)	1.2	8.2	-5.0	2.4	3164	5.0	0.6
O=C(NCC1CCCO1)c1ccc2c(=O)n(CCc3ccccc3)c(=O)[nH]c2c1 (centres undefined)	-0.3	-3.4	-1.4	-1.1	3727	2.0	12.8
C#Cc1ccc(C2C=C(C(=O)NCc3nc4ccccc4[nH]3)OC(OCc3ccc(CO)cc3)C2)cc1 (centres undefined)	.	13.5	.	7.0	.	14.7	6.8
CSc1ccc(S(=O)(=O)NCC(=O)OCC(=O)N(Cc2ccccc2)C(C)C)cc1[N+](=O)[O-]	6.5	7.0	-21.6	1.7	4025	6.2	-4.4
Cc1ccc(/C(N)=N/OC(=O)c2ccco2)cc1	-1.0	5.1	24.7	7.6	9303	15.5	10.3
Cc1cc(C(F)F)n2ncc(C(=O)O)c2n1	0.6	-0.8	-17.8	6.6	5286	6.1	6.2
O=C(Oc1ccc2c3c(c(=O)oc2c1)CCC3)c1ccco1	0.1	10.6	5.5	11.1	11812	3.7	-3.9
O=C(NCc1ccco1)c1ccc(C(=O)NCc2ccco2)s1	4.1	-1.0	-26.3	2.3	.	8.0	8.4
COc1ccc(/C(N)=N/OC(=O)Cc2ccccc2[N+](=O)[O-])cc1	-11.6	9.5	-23.3	-1.2	2188	3.7	-0.7
O=C(NN=Cc1ccccc1OC(F)F)c1cccc(S(=O)(=O)N2CCCC2)c1	.	1.0	-11.5	0.8	3667	4.6	0.1
O=C(NCc1cccc(Br)c1)c1cc(-c2ccccc2)nn1CC1CC(c2cccc([N+](=O)[O-])c2)=NO1 (centres undefined)	11.6	-7.4	-12.6	1.4	2872	8.2	10.7
COc1ccc(CCNC(=O)COC(=O)c2cncc(Br)c2)cc1OC	.	0.1	-13.6	0.6	3855	17.2	41.5
O=C(NCCOC(=O)c1ccc([N+](=O)[O-])cc1)c1cccnc1	-8.1	3.5	-17.3	6.6	4422	0.7	3.9
Cc1ccc(C(=O)CC(c2cccs2)S(=O)(=O)c2ccc(C)cc2)cc1 (centres undefined)	12.2	4.1	-91.1	14.2	2603	.	.
Cc1ccc(C(c2sc3nc(C)nn3c2O)N2CC(C)OC(C)C2)cc1 (centres undefined)	-22.9	-4.8	1.0	-3.9	4891	5.4	14.3
COC(=O)c1ccccc1NC(=S)N1CCN(c2ccc(OC)cc2)CC1	1.6	-7.5	-11.2	5.5	4251	-5.0	-7.4
CC(C)CN1CCC(=O)N(C(COc2ccccc2)Cc2ccccc2)CC1 (centres undefined)	.	0.6	.	2.3	.	7.0	-1.1
CC(=O)O[C@H]1C(=O)[C@@]2(C)C([C@H](OC(=O)c3ccccc3)[C@]3(O)C[C@H](O)C(C)=C1C3(C)C)[C@]1(OC(C)=O)CO[C@@H]1C[C@H]2O (some centres undefined)	0.1	3.2	-36.0	1.3	6264	.	.
CSCc1ccc(C(=O)Nc2cccc(C)c2C)cc1	5.8	-0.2	-113.3	2.8	2665	11.3	6.5
CCOCCCNC(=O)c1ccc(NC(=O)C2=CSCCO2)cc1	0.6	1.5	-20.3	0.1	4921	-5.3	-6.0
O=C1/C(=C/c2ccccn2)SC(=S)N1Nc1ncc(C(F)(F)F)cc1Cl	.	1.7	-13.8	8.0	3754	9.9	7.5
CCCCNC(=S)Nc1ccc(C(F)(F)F)cc1	1.0	-21.9	-31.3	0.3	4139	12.0	6.8
O=C(CCN1C(=O)c2ccccc2S1(=O)=O)Nc1ccc(F)c(F)c1F	3.9	-4.3	-23.1	6.3	.	3.4	-4.9
CC(=O)c1nnn(-c2nc(N)nc(N(c3ccccc3)c3ccccc3)n2)c1C	2.5	9.3	-13.8	-0.5	22006*	4.1	9.5
COc1ccc(-c2cc(=O)c3c(OC)c(OC)c(OC)c(OC)c3o2)cc1OC	-4.8	1.6	6.5	11.1	4342	8.1	4.9
O=C(Nc1nnc(C2=COCCO2)o1)C1CCCCC1	-0.9	7.8	-22.9	5.3	3413	15.4	10.7

Among those listed so far, 2 have a thiophene ring, fused or not.
SMILES	BJeLR viability	ugtP null kill	PrP 5UTR inh	RN4220 kill	Bead autofluor	Mtb hypoxia rep	Mtb hypoxia rep growth
O=C(NCc1ccco1)c1ccc(C(=O)NCc2ccco2)s1	4.1	-1.0	-26.3	2.3	.	8.0	8.4
Cc1ccc(C(=O)CC(c2cccs2)S(=O)(=O)c2ccc(C)cc2)cc1 (centres undefined)	12.2	4.1	-91.1	14.2	2603	.	.

Following part.
SMILES	BJeLR viability	ugtP null kill	PrP 5UTR inh	RN4220 kill	Bead autofluor	Mtb hypoxia rep	Mtb hypoxia rep growth
O=C(CSc1nnc(-c2ccncc2)o1)c1ccc2c(c1)OCCO2	7.6	-8.6	-53.7	6.0	2538	6.5	1.1
O=C(COc1ccc(S(=O)(=O)N2CCOCC2)cc1)Nc1ccccc1C(F)(F)F	15.1	-0.9	-44.9	4.8	22134*	3.2	6.8
CCc1nc(SCC(=O)Nc2c(C)n(C)n(-c3ccccc3)c2=O)n[nH]1	.	-1.6	-9.4	0.3	4963	.	.
O=C(Nc1ccnn1C1CCN(C2CCCC2)CC1)c1ccccc1	1.9	0.6	-10.0	2.4	5301	7.1	1.5
O=C(Nc1nc2c(s1)CCCC2)c1cccs1	.	-5.4	-82.2	-0.3	4039	3.1	6.7
Cc1cccn2c(=O)c3cc(C(=O)NC4CCCCC4)c(=N)n(CCN4CCOCC4)c3nc12	1.2	3.0	-18.7	2.3	3663	-10.0	3.9
O=C(c1cc(-c2ccccn2)nc2c(Cl)cccc12)N1CCN(C(=O)C2CCCO2)CC1 (centres undefined)	-8.3	-1.1	-5.4	6.3	3615	.	.
Cc1nc(SCC(N)=O)[nH]c(=O)c1CCC(C)C	-7.0	-4.6	-5.3	-14.5	2889	1.4	1.4
COc1ccc(C=NNc2nc(N3CCCC3)nc(N3CCCC3)n2)c(OC)c1OC	.	1.0	.	1.8	.	-3.3	-0.7
O=C(CCNc1ccc(F)cc1)c1ccco1	-8.7	-3.6	-34.3	-8.5	2938	13.2	15.5
COc1ccc(-c2noc3c2-c2nc(-c4ccccc4Cl)sc2CC3)cc1	15.3	-6.2	-17.5	-10.3	2999	11.7	9.0
Cc1ccsc1C(=O)OCC(=O)NC1CCS(=O)(=O)C1 (centres undefined)	4.9	8.8	-16.7	1.0	3443	11.4	18.7
CCCCn1nc(C(=O)N(C)CC(=O)Nc2ccc(F)c(F)c2F)ccc1=O	.	1.9	-32.8	2.0	3437	9.4	0.1
C=CCC(CC(=O)NCCO)C(=O)NCC(OC(=O)C(CC=C)CC(=O)OC(C)(C)C)c1ccccc1 (centres undefined)	.	-1.4&0.7&-7.4	.	6.3&9.1&5.9	.	12.0&18.3&10.1	7.2&9.1&4.9
COCOc1ccc(C2CC(=O)c3c(OCOC)cc(OCOC)cc3O2)cc1 (centres undefined)	1.1	0.4	-16.9	3.0	5878	.	.
Cc1cc(=O)n2[nH]c(-c3cccnc3)nc2n1	-8.7	5.4	.	6.3	.	1.8	-1.5
O=C(c1ccc(Cl)c(S(=O)(=O)N2CCCC2)c1)N1CCN(c2ccccc2F)CC1	0.2	-1.2	-16.2	1.5	4684	5.9	-0.8
CC(C)(C)OC(=O)N1CCC[C@H]1C(=O)N/N=C/c1ccc2ncccc2c1	2.0	.	-15.0	.	5715	.	.
COc1ccc(C2=CN(Cc3ccccc3)C(c3ccccc3)CC2=O)cc1 (centres undefined)	.	-2.4	-27.8	-2.9	3949	3.9	13.7
O=C(CCNC(=O)c1ccc([N+](=O)[O-])cc1)NC1CCCCCC1	.	8.5	-0.4	3.6	3772	10.8	7.6
Cc1ccc2c(CC(=O)OC(C)C(=O)Nc3ncc(Cl)cc3Cl)coc2c1 (centres undefined)	-7.3	-2.7	-12.2	7.0	10698	1.4	1.0
COC(=O)C1=C(C(=O)OC)[C@@H]2N(C)c3ccccc3[C@@]23C[C@@H](CO)N(C(=O)C2CCC2)C3=N1	4.9	.	-5.0	.	4200	.	.
CSc1sc(C(=O)NNC(C)=O)c2c1C=CCC2	-8.4	5.6	.	3.3	.	-1.1	-3.1
COc1ccc(-c2cc(N)n(S(=O)(=O)c3ccc(F)cc3)n2)cc1OC	-3.1	0.3	-23.6	1.6	6417	4.3	-0.9
O=C(Nc1cccnc1)c1cc(-c2ccccc2)on1	-5.1	6.2	-12.4	3.3	2794	.	.
CCCn1nc(NC(C)=O)c2cc3cccc(C)c3nc21	1.6	-0.7	-9.4	2.3	4201	14.7	-0.8
Cc1ccc(C)c(S(=O)(=O)NCC(=O)OCC(=O)Nc2sccc2C(N)=O)c1	.	1.7	-32.0	3.5	4587	1.9	-1.0
COc1ccc(Cn2c(=O)[nH]c3cc(C(=O)NCCCN4CCCC4)ccc3c2=O)cc1	2.1	7.7	-2.7	0.5	7676	5.5	2.7
CC1CCCCN1C(=O)C1CCN(c2nc(-c3ccccc3)nc3c2CCC3)CC1 (centres undefined)	-13.5	0.3	15.0	4.4	4002	-0.6	-0.4
COc1ccc(NC(=O)CN(C)C(=O)C2CCCO2)cc1 (centres undefined)	.	1.7	-16.3	1.5	4005	9.2	9.1

In a second layout: 2 of the compounds above.
Compound | BJeLR viability | ugtP null kill | PrP 5UTR inh | RN4220 kill | Bead autofluor | Mtb hypoxia rep | Mtb hypoxia rep growth
O=C(NCC1CCCO1)c1ccc2c(=O)n(CCc3ccccc3)c(=O)[nH]c2c1 (centres undefined) | -0.3 | -3.4 | -1.4 | -1.1 | 3727 | 2.0 | 12.8
CCOCCCNC(=O)c1ccc(NC(=O)C2=CSCCO2)cc1 | 0.6 | 1.5 | -20.3 | 0.1 | 4921 | -5.3 | -6.0

Single records (already shown). Screens in order: BJeLR viability, ugtP null kill, PrP 5UTR inh, RN4220 kill, Bead autofluor, Mtb hypoxia rep, Mtb hypoxia rep growth
CC(=O)c1nnn(-c2nc(N)nc(N(c3ccccc3)c3ccccc3)n2)c1C is entered as 2.5, 9.3, -13.8, -0.5, 22006*, 4.1, 9.5
O=C(COc1ccc(S(=O)(=O)N2CCOCC2)cc1)Nc1ccccc1C(F)(F)F is entered as 15.1, -0.9, -44.9, 4.8, 22134*, 3.2, 6.8
O=C(Nc1nc2c(s1)CCCC2)c1cccs1 is entered as ., -5.4, -82.2, -0.3, 4039, 3.1, 6.7
CCn1c(SCC(=O)NC(=O)NC(C)(C)C)nc2ccccc21 is entered as -2.1, 1.5, -26.1, 5.5, 3653, 12.2, 4.9

Next records.
SMILES	BJeLR viability	ugtP null kill	PrP 5UTR inh	RN4220 kill	Bead autofluor	Mtb hypoxia rep	Mtb hypoxia rep growth
O=c1cc(-c2nn[nH]n2)[nH]c(=O)[nH]1	.	1.6	-21.1	4.8	4000	9.1	10.3
O=C(N1CCOCC1)C12CC3CC(C1)CC(C(=O)N1CCOCC1)(C3)C2	0.7	-1.9	-5.2	6.7	8884	7.6	11.0
O=C(CNC(=O)c1ccccc1Cl)NC1CCN(Cc2ccccc2)CC1	-10.0	12.1	-13.4	1.6	3078	3.2	-0.3
CCOc1cccc2c1OC1(C)CC2NC(=O)N1c1cccc(Cl)c1 (centres undefined)	2.6	-2.9	-19.4	5.8	5508	-7.6	4.1

Single entries from the entries so far:
Result of O=C(CNC(=O)c1ccccc1Cl)NC1CCN(Cc2ccccc2)CC1 in Mtb hypoxia rep growth: -0.3
Result of O=C(N1CCOCC1)C12CC3CC(C1)CC(C(=O)N1CCOCC1)(C3)C2 in Mtb hypoxia rep: 7.6
